# Screening data from PubChem.
# gsp antag: antagonizes gsp, the McCune-Albright syndrome mutation; Potency, µM (titrated, usually from 76.9 µM), without a hit: at the highest dose activity change, negative = inhibition, actives largely listed as inhibitors; AID 624288; actives 0.4% (n = 340,000); gsp-mutant cells, cAMP HTRF, 30 min; control for the full effect not named in the record; active = falling curve of any shape with a large fitted effect; inconclusive = falling curve, mostly with a smaller effect; inactive = flat or rising curve; cell line not stated here;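 also: intracellular cAMP measured with PDE inhibitor Ro 20-1724 present during compound exposure; potency is read from the fitted curve at half-maximal effect; % is scaled to controls: 0 for no effect and ±100 for the full control effect; nearly all actives have a fitted effect of over 65% in size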
#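 Cells, 2000/well, grown 16–24 h in DMEM 10% FBS with 0.5 mg/ml G418, then compounds plus […] (300 uM addition stock), 30 min at 37C. cAMP read by HTRF (cAMP-d2 and anti-cAMP antibody-K in lysis buffer) after 30 min RT.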
# PINK1 expr mod: modulators of PINK1 expression; PINK1 immunofluorescence, high-content cytometry, 24 h; Potency, µM (titrated, usually from 76.6 µM), inactives show at the highest dose activation (PINK1 increase), hits mostly activators; actives 0.2% (n = 410,000); AID 624263; active = well fitted activation curve with a large enough effect; inconclusive = small, poorly fitted or top-dose-only effect; inactive = flat fitted curve, though single readings scatter; cell line not stated here;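 also: potency is read from the fitted curve at half-maximal effect; % of control where 0% means no effect; nearly all actives have a fitted effect of over 65% in size; a mitochondrial uncoupler was the plate control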
#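 Fluorescence from anti-PINK1 antibody, together with nuclear and cell stains, was scanned on a laser-scanning cytometer. Before staining, stable-line cells were incubated 24 hours with compounds at 5 concentrations; primary antibody 12 h at 10 degrees C.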
# gsp ag: gsp mutant agonism; gsp mutant cells, cAMP HTRF, 30 min; control for the full effect not named in the record; Potency, µM (series often up to 76.9 µM), for inactives: at the top dose activation (cAMP increase), hits mostly activators; actives 0.13% (n = 340,000); active = well fitted activation curve with a large enough effect; inconclusive = small, poorly fitted or top-dose-only effect, or another doubt; inactive = no such curve, though single readings can be large or run the other way; cell line not stated here;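 also: phosphodiesterase inhibitor Ro 20-1724 added with compounds to block cAMP breakdown; potency is read from the fitted curve at half-maximal effect; nearly all actives have a fitted effect of over 60% in size; about a fifth of the inactives were tested at one dose only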
#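 Cells in DMEM/10% FBS with G418 were pretreated with compounds in DMSO plus […] (300 uM stock) for 30 min at 37C. cAMP was measured by HTRF (cAMP-d2 plus anti-cAMP antibody-K) after 30 min at room temperature.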
# Sfp inh: blocks B. subtilis Sfp PPTase activity. Biochemical Sfp PPTase activity, qHTS. Potency, µM, inactives show max response, negative = inhibition, usual class: inhibitors. actives 3.5% (n = 310,000). AID 1490; active = well fitted inhibition curve with a large enough effect; inconclusive = small, poorly fitted or top-dose-only effect, or another doubt; inactive = no such curve, though single readings can be large or run the other way;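 also: the enzyme is Sfp with the accession as filed and its product quenches rhodamine fluorescence; potency is read from the fitted curve at half-maximal effect; 0% = enzyme reaction without inhibitor and -100% = no enzyme wells; top concentration of the series not given in the record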
#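 Sfp 15 nM + cpd, 15 min RT; start w/ rhodamine-CoA 5 uM, BHQ-2-YbbR 12.5 uM (final); 50 mM Hepes pH 7.6, 10 mM MgCl2, 0.01% NP-40, 0.01% BSA; read 525/598 nm at 0 and 30 min.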
# Menin MLL FP FL: inhibitors of human menin-MLL interaction, wild-type MLL peptide; Fluorescence polarization, fluorescein-MLL peptide displacement from menin; AID 1766; FP activity change, % at 61.4 µM; 290,000 tested, under 10 active; inconclusive = falling polarisation curve, or a change in total fluorescence; inactive = total fluorescence flat and polarisation flat or rising; no compound was filed as active; the % refers to the polarisation; negative = inhibition;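 also: % of control where 0% means no effect; inhibitors lower the polarisation; unlabelled MLL peptide was the positive control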
# ClpP mod: qHTS Assay for Activators of ClpP; purified B. subtilis ClpP, FRET peptide cleavage, 20 min; actives 1.9% (n = 340,000); ATP-dependent Clp protease proteolytic subunit (Bacillus subtilis (strain 168)), P80244; Potency, µM (series often up to 57.5 µM), inactives show at the top dose activity change, negative = active; active = well fitted falling curve with a large enough effect; inconclusive = small, poorly fitted or top-dose-only effect; inactive = no such curve, though single readings can be large or run the other way; also: potency is read from the fitted curve at half-maximal effect; the source files actives as falling curves though it sought activators and does not explain the sign; nearly all actives have a fitted effect of over 65% in size; many hits overshoot -100%
# Target sequence (P80244 whole entry, looked up): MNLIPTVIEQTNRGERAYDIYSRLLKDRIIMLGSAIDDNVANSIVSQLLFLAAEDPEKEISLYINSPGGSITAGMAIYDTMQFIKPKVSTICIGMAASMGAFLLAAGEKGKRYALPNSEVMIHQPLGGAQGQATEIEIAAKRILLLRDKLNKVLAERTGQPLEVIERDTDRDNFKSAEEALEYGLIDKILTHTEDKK
#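 ClpP 10 microg/mL final, pH 8 Tris/KCl buffer with BSA, glycerol, Tween-20; compound pinned in; FRET-FV substrate; RT 20 min; Ex320/Em430; ΔFRET vs ADEP 5.8 microM, DMSO, no enzyme.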
# D2 ag: agonists of human D2 dopamine receptor (beta-arrestin); activation, % (no concentration beside the values); P14416; AID 624465; DiscoveRx PathHunter D2 beta-arrestin, luminescence, 90 min; 100% = 57 uM dopamine signal; actives 0.084% (n = 360,000); in the data active = activation above about 40%; inconclusive = about 15% to 40%; inactive = below about 15%; also: compound concentration not given in the record; the text of the record calls up to 30% inactive
# Target sequence (P14416 whole entry, looked up): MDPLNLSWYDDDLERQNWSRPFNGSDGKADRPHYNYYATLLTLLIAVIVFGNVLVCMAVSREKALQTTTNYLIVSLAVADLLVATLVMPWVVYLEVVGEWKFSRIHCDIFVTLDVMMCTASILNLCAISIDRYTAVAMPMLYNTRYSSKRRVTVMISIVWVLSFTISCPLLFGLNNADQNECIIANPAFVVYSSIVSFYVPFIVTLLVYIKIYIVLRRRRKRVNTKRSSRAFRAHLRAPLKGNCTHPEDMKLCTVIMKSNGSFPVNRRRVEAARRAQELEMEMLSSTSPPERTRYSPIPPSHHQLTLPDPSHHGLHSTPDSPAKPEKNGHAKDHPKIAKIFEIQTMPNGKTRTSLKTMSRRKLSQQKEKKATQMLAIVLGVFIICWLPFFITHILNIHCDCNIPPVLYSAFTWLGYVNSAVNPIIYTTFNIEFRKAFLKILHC
#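 Agonist mode: compounds alone added to overnight-plated D2 PathHunter cells for 90 min at 37 C, with 57 uM final dopamine (EC100) defining full response. Beta-arrestin recruitment detected by chemiluminescent reagent, read after 1 h at ambient temperature.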
# * hit, by the source's call; u = inconclusive; x = no result given; & = joins results of further samples; [ ] = another dose, or the depositor's remark. Outcome played no part in choosing rows (roughly 5.1% active in at least one column).
smiles	gsp antag	gsp ag	Menin MLL FP FL	ClpP mod	D2 ag	PINK1 expr mod	Sfp inh
CCOC(=O)CNC(=O)Cn1cnc2sc(C)c(S(=O)(=O)N3CCC(C)CC3)c2c1=O	14%	-4%	-2.4	0.0%	-0.2	-1.3%	-8%
COc1ccc(S(=O)(=O)n2oc(=O)cc2-c2ccccc2)cc1	-5%	-22%	6.0	0.4%	-4.3	0.2%	2%
Cn1c(/C(C#N)=N/O)nc2ccccc21	8%	-24%	2.7	-0.8%	1.6	0.6%	-6%
O=C(CSc1nnnn1Cc1ccccc1)N1CCN(c2ccccc2)CC1	12%	-18%	-1.6	-1.1%	1.6	2.6%	-3%
C=CCc1cc(C=O)cc(OCC)c1OCc1ccc(Cl)cc1	-13%	-2%	3.1	-2.8%	-1.5	u	-24%
O=C1OC2(CCCCC2)OC(=O)C1=CNc1nc2ccccc2s1	6%	16%	u	1.5%	-0.9	-1.5%	3%
CC(=O)c1ccc(OCc2cc(C(=O)N3CCCCCCC3)no2)cc1	-12%	-30%	x	-3.0%	-0.1	-0.3%	2%
CC(=O)Nc1ccc(NS(=O)(=O)c2cc(C)sc2C)cc1	-4%	0%	-1.9	0.3%	-1.1	0.8%	-1%
CCCCc1c(O)c2ccccc2[nH]c1=O	3%	5%	1.9	25µM*	-5.9	-1.2%	5%
Cc1ccc(O)c(-c2cc3ccccc3[nH]2)c1	-13%	9%	4.5	14µM*	0.8	13%	-10%
Cc1cccc(-c2nc3ccccc3c3nncn23)c1	0%	1%	0.9	0.8%	-0.4	-0.5%	9%
CCOC(=O)N1CCN(C(=O)COC(=O)c2cc(Cl)cc(Cl)c2)CC1	2%	15%[15.4 µM]	x	-0.1%	-6.9	-0.7%	x
O=C(Nc1cscc1S(=O)(=O)c1ccccc1)c1ccccc1Cl	0%	3%[15.4 µM]	0.8	x	-2.5	3.5%	-6%
COc1ccc2[nH]c(O)c(N=NC(=O)c3ccc(NS(=O)(=O)c4cccs4)cc3)c2c1	-16%	9%	x	3.3%	-0.3	u	x
COc1ccc(N(CC(O)CN2CCOCC2)S(=O)(=O)c2ccccc2)cc1 (stereo not drawn)	7%	-8%[15.4 µM]	x	x	-1.6	0.1%	10%
Cc1cc(C)c(S(=O)(=O)Nc2ccccc2C(=O)N2CCCC2)c(C)c1	0%	-4%[15.4 µM]	-1.2	-3.1%	0.5	2.2%	4%
CCOC(=O)C1=C(O)/C(=C\c2sccc2C)N=C1C	u	-16%	3.4	-6.5%	-3.3	-2.1%	-1%
O=c1[nH]c2cc(C(F)(F)F)ccc2n1-c1cc(C(F)(F)F)ccc1O	-3%	x	6.9	-2.2%	-1.9	5.6%	15%&18%
CC(=O)Nc1ccc(N2C(C(C)=O)=NN(c3ccc(Cl)cc3)C2c2sccc2C)cc1 (stereo not drawn)	-15%	16%	u	0.0%	-1.9	-4.4%[38.3 µM]	20%
Cc1ccc(S(=O)(=O)c2c[nH]c3ccc(Cl)cc3c2=O)cc1	-13%	-3%[15.4 µM]	-0.3	x	-3.2	7.5%	12%
CCOc1cc(/C=N\NC(=O)c2c(C)nc3ccccn23)ccc1O	-15%	1%[15.4 µM]	1.5	0.0%	1.7	-0.7%	13%
CCCc1cc(=O)[nH]c(SCc2cccc(C)c2)n1	-2%	26%	1.6	1.0%	-1.1	u	16%
CC1=C(C#N)C(=O)NC(=O)/C1=C\c1ccc(-c2cc(C)c(C)cc2[N+](=O)[O-])o1	u	1%[15.4 µM]	-7.8	1.1%	-0.8	-0.7%	50µM*
COc1ccc(COCCN2CCN(S(=O)(=O)c3ccccc3)CCC2=O)cc1	0%	x	-0.9	-1.9%	-3.5	-0.3%	19%
COc1ccc(-c2[nH]ncc2-c2ccc3c(c2)OCCO3)c(O)c1	-5%	-21%	2.3	-11%	1.3	3.9%	9%
COc1cc(CNc2ccc(N3CCCCC3)cc2)ccc1OCC(=O)NC(C)(C)C	-23%	-7%	-1.1	x	14	4.2%	-17%
COc1ccccc1CC(=O)NC1CCCCCC1	12%	4%	-6.0	2.0%	-4.5	2.8%	5%
COC(=O)c1c(C)c(OC(=O)c2c(C)cc(O)c(C=O)c2O)cc(C)c1O	-3%	x	x	-0.6%	-4.1	0.2%	x
CCCOc1ccc2oc(=O)c3c(c2c1)CCCN3C(=O)CN(C)Cc1ccccc1	-7%	1%	-1.5	u	-3.3	1.7%	-11%
Cc1ccc(NC(=O)C2CCN(S(=O)(=O)c3cccs3)CC2)c(O)c1	4%	-19%	0.2	1.2%	-4.3	4.9%	7%

smiles	gsp antag	gsp ag	Menin MLL FP FL	ClpP mod	D2 ag	PINK1 expr mod	Sfp inh
Cc1nnc(SCC(=O)NC(C)c2ccccc2)[nH]c1=O (stereo not drawn)	2%	-15%	-1.1	0.4%	0.6	-1.6%	u
C[C@@H]1CN([C@@H](C)CO)S(=O)(=O)c2ccc(C#Cc3cccc(F)c3)cc2O[C@@H]1CN(C)CC1CC1	x	1%	x	-4.6%	0.2	29%	x
CN1CCN(NC(=O)c2ccc(COc3ccccc3Br)o2)CC1	9%	-57%[inhibitor]	4.9	x	-3.6	2.9%	-10%
COc1ccc(CCNC(=O)Cc2nn(C)c(=O)c3ccccc23)cc1OC	-14%	1%	-1.0	1.7%	-3.0	2.7%	11%
CCCc1nn(C)c(C(=O)Nc2ccc3ccccc3c2)c1Cl	-10%	-17%	4.4	3.4%	-5.2	11%	21%
Cc1ccc2nc(NC(=O)c3ccc(NS(=O)(=O)c4cccs4)cc3)sc2c1	-5%	-2%	2.0	-16%	-0.6	2.2%	u
Cc1n[nH]c(=O)c2c(NC(=O)CSc3nnc(C4CC4)n3C)oc(C)c12	2%	21%[15.4 µM]	x	0.6%	1.2	-0.1%	x
COc1ccccc1N(CC(=O)NCc1ccccn1)S(C)(=O)=O	-4%	-2%	2.1	-0.5%	1.6	-3.9%[38.3 µM]	12%
CC1Cc2cc(S(=O)(=O)N3CCCC(C(=O)N4CCCCC4)C3)ccc2N1C(=O)C1CC1 (stereo not drawn)	-2%	-18%	-1.8	-0.3%	-0.3	1.9%	10%
COc1ccc(NC(=O)c2cccc(Oc3ccc([N+](=O)[O-])cc3Cl)c2)cc1	-12%	8%	3.8	x	9.3	9.6%	5%
CC[C@@]12C(=O)N(c3cccc(Cl)c3)C(=O)N1[C@H](c1ccc(Br)cc1)[C@@H]1C(=O)N(C(C)(C)C)C(=O)[C@@H]12	-12%	-26%	x	-1.1%	0.3	3.1%	x
O=C(NNC(=O)c1cccc(Cl)c1)NNC(=O)c1cccc(Cl)c1	-10%	-13%[15.4 µM]	x	2.1%	3.9	4.2%	x
O=C(O)C1CC(c2ccccc2F)=NO1 (stereo not drawn)	7%	-1%	1.4	1.6%	-0.2	13%[38.3 µM]	14%
CCNc1ncc2ncc(=O)n(Cc3ccc(F)cc3)c2n1	x	x	2.1	x	x	1.0%	13%
COc1ccccc1-c1nnc2n1N=C(C(C)(C)C)CS2	-10%	u	4.7	0.4%	-0.2	-3.4%	15%
Cc1ccc(NC(=O)CSc2nnc(/N=C/N(C)C)s2)cc1	6%	-9%[15.4 µM]	0.5	-0.1%	-3.0	-1.5%	3%
COc1ccc(CNC(=O)C2(c3ccc(Cl)cc3)CC2)cc1	2%	9%	1.0	x	-2.4	-0.5%	7%
COc1ccc(S(=O)(=O)N(C)c2nc3ccccc3n3c(CC(C)C)nnc23)cc1	-23%	u	-2.6	x	-2.1	-0.7%	6%
c1ccc2c(c1)CC(CN1CCNCC1)O2 (stereo not drawn)	5%	-67%[inhibitor]	2.3	x	1.1	-0.8%	-14%
O=C(Nc1ccc2c(c1)CCC2)c1ccc(Br)o1	-6%	6%	1.4	-2.6%	-2.9	0.2%	-14%
COc1cc(OC)c2c(-c3cccc(-c4cccc(C)c4)c3)cc(=O)oc2c1	7%	x	-0.7	22µM*	-2.9	0.0%	-4%
C=CCNc1ncnc2c1ncn2[C@H]1CN(CCc2ccccc2)C[C@@H](CO)O1	x	x	x	-2.1%	-5.2	0.4%	x
COc1ccccc1N1CCN(C(=O)c2nn(-c3ccccc3OC)c(=O)c3ccccc23)CC1	-18%	-25%	0.5	-1.4%	0.1	-3.7%	20%
OCCNc1ncnc2c1ncn2[C@H]1CN(Cc2ccncc2)C[C@@H](CO)O1	x	x	x	-1.0%	-3.1	-0.3%	x
CN1C(=O)CC(N2CCC(c3nc4ccccc4s3)CC2)C1=O (stereo not drawn)	14%	5%	-0.4	-1.3%	-0.6	-1.1%	14%
COc1ccc(CCN(C)C(=O)c2ccc(OCC(=O)N3CCOCC3)c(OC)c2)cc1OC	-3%	-1%[15.4 µM]	x	-0.9%	8.3	5.1%	11%
CCn1c(SCc2nc3ccccc3s2)nnc1-c1cccs1	-11%	-27%	-0.8	-7.1%	1.8	3.1%[38.3 µM]	2%
COc1cc2cc(C(=O)N3CCN(Cc4ccc5c(c4)OCO5)CC3)[nH]c2cc1OC	-26%	18%	0.3	4.3%	2.4	-1.2%	-4%
Cc1c(N=C2NN=C(c3c[nH]c4ccccc34)CS2)c(=O)n(-c2ccccc2)n1C	3%	30%	2.4	-28%	-4.2	-0.9%	u
C=CCn1c(Sc2nnc(C)s2)nc2c1c(=O)[nH]c(=O)n2C	8%	13%	-1.9	-0.4%	-0.8	-1.9%	3%

smiles	gsp antag	gsp ag	Menin MLL FP FL	ClpP mod	D2 ag	PINK1 expr mod	Sfp inh
O=C(Nc1ccc(Cl)c(Cl)c1)c1ccc(Cn2c(=O)[nH]c3ccsc3c2=O)cc1	-12%	2%	2.5	-4.3%	-8.7	1.0%	32%[activator]
COC(=O)[C@H](CCSC)NC(=O)Nc1ccc(C(C)C)cc1	9%	u	-1.2	-0.3%	-2.6	3.2%[38.3 µM]	11%
Nc1ccccc1SC1CC(=O)N(c2ccccc2Cl)C1=O (stereo not drawn)	8%	-1%	3.6	-0.5%	-4.3	13%	-7%
CC(C)CCNC(=O)c1nnc(Cc2ccc(Cl)cc2)o1	10%	u	-5.8	0.8%	0.2	0.3%	17%
